From PubChem
ClpP mod = qHTS Assay for Activators of ClpP. ATP-dependent Clp protease proteolytic subunit (Bacillus subtilis (strain 168)), P80244. purified B. subtilis ClpP, FRET peptide cleavage, 20 min. Potency, µM (highest dose often 57.5 µM), inactives show top-dose activity change, negative = active. hit rate 1.9% among 340,000; active = well fitted falling curve with a large enough effect; inconclusive = small, poorly fitted or top-dose-only effect; inactive = no such curve, though single readings can be large or run the other way; further: potency means the concentration at half of the fitted maximal effect; the source files actives as falling curves though it sought activators and does not explain the sign; nearly all actives have a fitted effect of over 65% in size; many hits overshoot -100%
Target sequence (P80244 whole entry, looked up): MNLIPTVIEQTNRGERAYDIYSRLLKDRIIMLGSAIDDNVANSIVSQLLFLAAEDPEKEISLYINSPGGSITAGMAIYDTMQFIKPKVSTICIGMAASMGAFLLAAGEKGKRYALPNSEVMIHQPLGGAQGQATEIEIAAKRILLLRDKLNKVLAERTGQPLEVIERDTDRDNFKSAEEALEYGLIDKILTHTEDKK
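Purified B. subtilis ClpP, 10 microg/mL final in Tris/HCl pH8 with KCl, BSA, glycerol and Tween-20, cleaved an Abz/nitrotyrosine-quenched decapeptide. Fluorescence (ex 320, em 430) was read at 0 and 20 min at room temperature. Delta was normalized to 5.8 microM ADEP and DMSO/no-enzyme controls.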
Menin-MLL FL inh = displaces fluorescein MLL peptide from human menin; Fluorescence polarization, fluorescein-MLL peptide displacement from menin; FP activity change, % at 61.4 µM; 290,000 tested, under 10 active; AID 1766; inconclusive = falling polarisation curve, or a change in total fluorescence; inactive = total fluorescence flat and polarisation flat or rising; no compound was filed as active; the % refers to the polarisation; negative = inhibition;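 further: % of control where 0% means no effect; inhibitors lower the polarisation; unlabelled MLL peptide was the positive control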
Sfp PPTase inh = inhibitors of Bacillus subtilis Sfp phosphopantetheinyl transferase; Q9F4F7; Biochemical Sfp PPTase activity, qHTS; Potency, µM, for inactives: max response, negative = inhibition, most hits filed as inhibitors; hit rate 3.5% among 310,000; AID 1490; active means well fitted inhibition curve with a large enough effect; inconclusive means small, poorly fitted or top-dose-only effect, or another doubt; inactive means no such curve, though single readings can be large or run the other way;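 further: the enzyme is Sfp with the accession as filed and its product quenches rhodamine fluorescence; potency means the concentration at half of the fitted maximal effect; 0% = enzyme reaction without inhibitor and -100% = no enzyme wells; top concentration of the series not given in the record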
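Reaction rates are the 30-min fluorescence difference (ex 525, em 598 nm) in wells containing 15 nM Sfp, 5 uM rhodamine-CoA and 12.5 uM BHQ-2-YbbR at pH 7.6 with 10 mM MgCl2.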
gsp antag = gsp mutant antagonism; Potency, µM (series often up to 76.9 µM), for the others: at the top dose activity change, negative = inhibition, hits mostly inhibitors; hit rate 0.4% among 340,000; gsp-mutant cells, cAMP HTRF, 30 min; control for the full effect not named in the record; AID 624288; active = falling curve of any shape with a large fitted effect; inconclusive = falling curve, mostly with a smaller effect; inactive = flat or rising curve; cell line not stated here;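 further: intracellular cAMP measured with PDE inhibitor Ro 20-1724 present during compound exposure; potency means the concentration at half of the fitted maximal effect; on the % scale 0 is the no-effect control and ±100 the full control effect; nearly all actives have a fitted effect of over 65% in size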
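Cells in G418 medium, seeded 16-24 h, 37C; buffer exchange to DPBS + 1 mM CaCl2, 0.5 mM MgCl2, 0.05% BSA; cpds in DMSO + […] (300 uM stock), 30 min 37C; HTRF cAMP detection.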
TRPML1 blocker = human mucolipin-1 channel inhibition. hit rate 0.02% among 390,000. Q9GZU1. activity change, negative = inhibition, % (concentration not given with the values). TRPML1-inducible cells, Ca2+ dye fluorescence, FDSS; stronger effect = lower value; inhibition of EC80 agonist-evoked calcium signal; in the data active means activity change below about -50%; inconclusive means about -30% to -50%; inactive means above about -30%;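 further: stimulus is agonist 54-4 at its EC80 concentration; on the % scale 0 is the no-effect control and ±100 the full control effect; compound concentration not given in the record; the text of the record puts the active cut at -80%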
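TRPML1-DL cells, Tet-induced overnight (~16 h, 37 °C) at 1,500 cells/well, were loaded with Ca8 no-wash dye plus quencher for 45-90 min at room temperature. Compounds were pinned during FDSS kinetic reading; agonist 54-4 at EC80 (4 uM final) then added.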
gsp ag = activates gsp, the McCune-Albright syndrome mutation; gsp mutant cells, cAMP HTRF, 30 min; control for the full effect not named in the record; Potency, µM (series often up to 76.9 µM), for inactives: at the highest dose activation (cAMP increase), hits mostly activators; hit rate 0.13% among 340,000; AID 624287; active = well fitted activation curve with a large enough effect; inconclusive = small, poorly fitted or top-dose-only effect, or another doubt; inactive = no such curve, though single readings can be large or run the other way; cell line not stated here;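 further: phosphodiesterase inhibitor Ro 20-1724 added with compounds to block cAMP breakdown; potency means the concentration at half of the fitted maximal effect; nearly all actives have a fitted effect of over 60% in size; about a fifth of the inactives were tested at one dose only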
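Cells stably selected in G418 were plated at 2000/well, grown 16-24 hr, then given compounds in DMSO with the PDE inhibitor […] (300 uM solution added) for 30 min at 37C; cAMP was read by HTRF.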
TRPV1 PAM = human TRPV1 potentiation; Q8NER1; TRPV1-expressing cells, Fluo-8 calcium influx, capsaicin EC20 potentiation; host cell line not named in the record; control for the full effect not named in the record; potentiation, % at 8.33 µM; hit rate 0.02% among 320,000; AID 540277; active means potentiation above 80%; inconclusive means 30% to 80%; inactive means below 30%; further: 0% is about no effect
Target sequence (Q8NER1 whole entry, looked up): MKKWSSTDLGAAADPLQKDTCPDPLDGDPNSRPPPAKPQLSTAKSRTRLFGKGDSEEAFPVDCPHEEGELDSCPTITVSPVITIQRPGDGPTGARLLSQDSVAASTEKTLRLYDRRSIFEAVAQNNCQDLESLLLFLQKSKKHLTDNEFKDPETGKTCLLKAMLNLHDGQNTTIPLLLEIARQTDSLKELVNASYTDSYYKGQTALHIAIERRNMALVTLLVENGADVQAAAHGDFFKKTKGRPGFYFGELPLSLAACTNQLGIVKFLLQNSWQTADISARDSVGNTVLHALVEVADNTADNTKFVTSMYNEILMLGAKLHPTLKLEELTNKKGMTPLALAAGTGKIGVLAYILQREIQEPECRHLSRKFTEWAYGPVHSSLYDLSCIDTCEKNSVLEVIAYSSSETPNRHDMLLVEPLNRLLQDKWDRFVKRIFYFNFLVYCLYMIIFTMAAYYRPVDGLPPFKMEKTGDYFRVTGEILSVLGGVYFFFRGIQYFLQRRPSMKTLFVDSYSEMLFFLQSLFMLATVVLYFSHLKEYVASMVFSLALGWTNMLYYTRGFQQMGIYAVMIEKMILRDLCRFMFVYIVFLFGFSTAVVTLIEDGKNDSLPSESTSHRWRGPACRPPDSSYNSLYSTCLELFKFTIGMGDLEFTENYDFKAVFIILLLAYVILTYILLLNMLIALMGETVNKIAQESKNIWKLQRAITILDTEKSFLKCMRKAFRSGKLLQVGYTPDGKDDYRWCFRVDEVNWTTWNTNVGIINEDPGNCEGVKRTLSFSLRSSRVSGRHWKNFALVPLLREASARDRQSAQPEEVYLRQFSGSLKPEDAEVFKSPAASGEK
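Fluo-8 calcium influx in TRPV1-expressing cells, kinetic read (ex 480/em 520 nm). Compound added and read 3 min for agonist activity, followed by capsaicin at EC20 final and 2 min further read for enhancement.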
Starred values were filed as active, the others as inactive; ? = inconclusive; nt = no result given; & = joins results of further samples; [ ] = another dose, or the depositor's remark.

SMILES | ClpP mod | Menin-MLL FL inh | Sfp PPTase inh | gsp antag | TRPML1 blocker | gsp ag | TRPV1 PAM
COc1ccc(S(=O)(=O)N(C)c2ccc(C(=O)N3CCCCC3)cc2)cc1 | -19% | -0.7 | 12% | -3% | 20 | -44%[inhibitor] | 7
COc1ccccc1CC(=O)N1CCCc2ccccc21 | 5.6% | 7.0 | 2% | -7% | 1 | ? | 3
COc1cccc(NC(=S)NN=C2CCC(C(C)(C)C)CC2)c1 (centres undefined) | -1.1% | -6.7 | 4% | -4% | -11 | 3%[15.4 µM] | 6
CC1=CC(C)C(=O)N(C)C(C)=C1 (centres undefined) | 0.2% | nt | nt | nt | 7 | -58%[inhibitor] | nt
Cc1ccc(C(=O)N/N=C/c2ccc(-c3ccc(Br)cc3[N+](=O)[O-])o2)o1 | -2.4% | nt | -18% | -9% | 11 | 1%[15.4 µM] | -5
COc1ccccc1OCC(=O)OCn1c(SC)nnc(C)c1=O | -3.3% | -0.9 | 7% | 1% | -11 | -3% | -5
Cc1ccc(-n2nnnc2CNC(=O)C(=O)c2c[nH]c3ccccc23)cc1C | 2.4% | nt | nt | nt | -2 | -32%[inhibitor] | nt
O=C(O)Cc1csc(-c2cccc(F)c2)n1 | nt | 0.2 | -19% | -8% | -19 | -3% | 2
CC(=O)Nc1nc(SCC(=O)NCc2ccc(F)cc2)[nH]c(=O)c1NC(=O)c1cccs1 | 0.9% | -2.6 | -16% | 53%[activator] | -4 | 29% | 0
CCOC(=O)c1c(C)n(C)c2ccc(OC(=O)c3ccoc3)cc12 | -1.7% | 2.1 | -1% | 4% | 1 | 5% | -6
CCOc1ccc(OCCC(=O)OCC(=O)Nc2cccc(S(=O)(=O)N3CCCCC3)c2)cc1 | -3.9% | nt | nt | -6% | 1 | -1% | nt
Cc1cnc(C(=O)Nc2cc(S(=O)(=O)N3CCOCC3)ccc2N2CCN(C)CC2)cn1 | -2.7% | -1.8 | 2% | 2% | 36 | ? | 2
COc1ccc(S(=O)(=O)N(C)CC(=O)N2CCC(C(N)=O)CC2)cc1 | 0.1% | -1.9 | 23% | -1% | 2 | -5% | -13
CNC(=S)N1N=C(c2ccc(OC)cc2)CC1c1ccc(N(C)C)cc1 (centres undefined) | -1.3% | 21 | 1% | -15% | 33 | -6% | 8
Cn1cccc1Cc1nnc(SCC(=O)Nc2cccc(F)c2)n1CCc1ccccc1 | 14% | 2.6 | -25% | -7% | -3 | 4% | -10
Cc1ccc(Cn2c(=N)c(S(=O)(=O)c3ccc(Br)cc3)cc3c(=O)n4ccccc4nc32)cc1 | 0.9% | ? | 8% | 0% | -1 | -1% | 3
CC1Cc2ccccc2C(=O)N1 (centres undefined) | -1.6% | -6.4 | 14% | -3% | 4 | 6% | -17
COc1cc(C(N)=O)cc(Br)c1OC | -8.1% | 1.1 | -1% | 0% | -7 | -60%[inhibitor] | 11
Cc1ccc(S(=O)(=O)NCCCNC(=O)c2ccccc2)cc1 | 0.4% | 0.5 | 3% | -7% | -1 | -3% | 1
CCOC(=O)C1CSC(CC(=O)Nc2ccc(Cl)cc2)C(=O)N1 (centres undefined) | -1.4% | 4.4 | -6% | 1% | 3 | 5% | 3
Cn1cnnc1SCC(=O)Nc1ccc2nc(SCc3ccccc3Cl)sc2c1 | 1.6% | -1.3 | -9% | -4% | -8 | 18% | 3
COc1ccc(NC(=O)CCSCCc2ccccn2)cc1OC | nt | -1.7 | 8% | -8% | 3 | ? | 7
O=C(CNC(=O)c1ccccc1Cl)OCC(=O)N1CCc2ccccc21 | 0.6% | 2.4 | 7% | -8% | 1 | -2%[15.4 µM] | 4
COc1ccc(NC(=O)C(Cc2ccccc2)n2cccc2)cc1OC (centres undefined) | -2.2% | 1.0 | 15% | -5% | 2&0 | 0%[15.4 µM] | -5
Cc1ccccc1/C=N/n1c(COc2ccccc2)n[nH]c1=S | nt | -0.4 | -11% | -8% | 0 | -12% | -19
CCOC(=O)NC(=O)C(=CNc1ccccc1OC)C(=O)NC(=O)OCC | nt | 1.8 | 5% | -17% | 10 | 5% | 4
COc1ccc(Cl)cc1C(=O)Nc1ccccc1N1CCN(C)CC1 | -19% | 1.2 | 5% | 5% | 6 | -8% | -7
CNC(=S)N(Cc1ccc(Cl)cc1)Cc1cccs1 | nt | 1.1 | 8% | -5% | -16 | 14%[15.4 µM] | -17
COc1ccc(N2C(=O)C3CCCN3C2c2ccc(F)cc2)cc1Cl (centres undefined) | 0.5% | 2.8 | 18% | -5% | 10 | ? | -7
CCOC(=O)N1CCN(S(=O)(=O)N2CCCC(C(=O)NCc3ccc(OC)cc3)C2)CC1 (centres undefined) | nt | -11 | 14% | 1% | 4 | 11%[15.4 µM] | -12
O=C(COC(=O)C1CCCO1)Nc1nc(-c2ccc(F)cc2)cs1 (centres undefined) | nt | nt | nt | -5% | -1 | -13% | nt
CCSc1nc2ccccc2n1C(=O)c1ccc(S(=O)(=O)N2CCCCC2)cc1 | -2.8% | 2.6 | -5% | 1% | 10 | ? | 19
O=C(O)CCSc1nnnn1-c1ccccc1 | -4.2% | 2.4 | 15% | 5% | 2 | 16% | -5
O=C(CNC(=O)c1ccco1)NCC(=O)OCc1ccc(Cl)cc1 | -3.1% | 7.6 | -1% | -5% | -19 | -9% | 0
COCc1nc2ccccc2n1Cc1ccccc1Br | 0.4% | 2.6 | -21% | -21% | -3 | -4% | 20
OC[C@H]1OC(O)[C@H](O)[C@@H](O)[C@H]1O (some centres undefined) | -0.9% | 1.7 | 6% | 3% | 2 | nt | 1
COc1cc(S(=O)(=O)Nc2ncccc2C)c(OC)cc1Cl | -3.4% | 1.8 | 19% | -14% | 5 | 6% | 0
COc1ccc(N=C2S/C(=C\c3ccc(C)s3)C(=O)N2CC(C)C)cc1 | -1.4% | -1.2 | 9% | 9% | -15 | 5% | nt
O=C(Nc1ccc(OC(F)(F)F)cc1)c1cnc2n(c1=O)CCS2 | -1.6% | 1.1 | 15% | 7% | 6 | 19% | -9
CC(C)C(NC(=O)CNC(=O)OC(C)(C)C)C(=O)NCc1ccc(Cl)cc1 (centres undefined) | nt | -0.1 | 14% | 14% | -23 | 0%[15.4 µM] | 7
O=C(COC(=O)CCSc1ccccc1)Nc1ccccc1Br | -0.7% | nt | nt | -3% | 7 | 28% | nt
Cc1nnc(SCCCCSc2nnc(C)c(=O)[nH]2)[nH]c1=O | nt | 1.1 | 0% | 10% | 2 | -7%[15.4 µM] | 2
COc1ccc(OCC(=O)N/N=C(\C)c2cccs2)cc1 | 0.5% | 1.5 | -10% | -3% | 2 | ? | -1
Cc1cc(OCC(=O)OCC(=O)NCc2ccc3c(c2)OCO3)ccc1Cl | -1.3% | nt | nt | 2% | 11 | 28% | -9
NC(=O)c1cccc(N=Cc2cc(Cl)cc(Cl)c2O)c1 | nt | ? | -26% | -10% | 19 | -35%[inhibitor] | -9
Cc1ccc(-n2ncc3c2CCCC3NC(=O)c2ocnc2C)cc1C (centres undefined) | -0.4% | 1.1 | 6% | -8% | -1 | ? | -4
COc1cccc(C(c2cccc(OC)c2)c2ccccc2C(=O)O)c1 | -5.2% | nt | nt | 0% | -6 | -6%[15.4 µM] | nt
Cc1c(Cl)cccc1NC(=S)N(CCN(C)C)C(C)c1ccco1 (centres undefined) | -10% | -1.5 | 13% | 0% | 2 | -2% | -7
COc1ccccc1N/C(=N/S(=O)(=O)c1ccc(C)cc1)c1ccc(Cl)cc1 | 0.7% | 7.9 | 11% | -14% | -6 | ? | ?
Nc1cc(N2CCCCCC2)c2nonc2c1[N+](=O)[O-] | 1.1% | ? | 13% | -1% | nt | -3% | -13

Later entries
SMILES | ClpP mod | Menin-MLL FL inh | Sfp PPTase inh | gsp antag | TRPML1 blocker | gsp ag | TRPV1 PAM
CSc1nnc(CCNS(=O)(=O)c2ccc(Br)cc2)n1C | 1.9% | 0.4 | 4% | 11% | -8 | -4%[15.4 µM] | 9
CC1CCN(C(=S)c2cn(Cc3cccc(F)c3)c3ccccc23)CC1 | nt | 6.6 | -5% | -7% | -4 | -6%[15.4 µM] | 4
CCOC(=O)Nc1cc(C)ccc1OC | 0.8% | -0.8 | 15% | 17% | 6 | -13% | -22
CCCCCC(O)CCC(=O)NNC1=CC(=O)CC(C)(C)C1 (centres undefined) | 1.6% | 2.1 | 11% | 15% | -3 | -5%[15.4 µM] | ?
CC(C)(C)c1ccc(NC(=S)NCc2cccs2)cc1 | -0.3% | -1.0 | 6% | -3% | -23 | -2% | -5
COc1ccc(C(=O)CSc2nccc(=O)[nH]2)cc1 | -3.8% | 3.2 | ? | -5% | -4 | 1% | 5
S=C(c1ccc(-c2ccccc2Cl)o1)N1CCOCC1 | 0.5% | 2.5 | 14µM* | -6% | -15 | -11% | -12
O=C(Nc1ccc2c(c1)OCCO2)c1coc2ccccc2c1=O | 0.9% | 0.9 | -13% | -3% | 2 | -20% | -9
CCCS(=O)(=O)Nc1ccc2cn[nH]c2c1 | nt | -2.7 | 17% | 2% | -10 | 22% | -1
Cc1ccc(S(=O)(=O)N2CCC(C(=O)NNC(=O)c3ccc(F)cc3)CC2)cc1 | nt | -4.4 | 17% | -16% | 12 | -2%[15.4 µM] | 5
Cc1ccc(COn2c(-c3ccc(Cl)cc3)nc3ccc([N+](=O)[O-])cc32)cc1 | -1.3% | 3.7 | -11% | -6% | 17 | 23% | -31
COc1ccc(NC(=O)C2C(=O)N(C)C3(C)CC2c2ccccc2O3)cc1 (centres undefined) | -0.5% | 6.8 | 14% | -3% | 6 | -2% | -12
COCC(=O)N=Nc1c(O)[nH]c2ccccc12 | 0.8% | 0.9 | -5% | -14% | -7 | -35% | 0
O=C(O)c1ccc(Cn2cnc3sc4c(c3c2=O)CCCC4)cc1 | nt | 4.1 | 14% | -5% | -19 | -5% | 0
CCn1ccnc1C(O)c1cccc2ccccc12 (centres undefined) | -1.0% | -8.8 | 16% | -3% | 6 | -10% | 6
